# LANA-H2B inh – blocks KSHV LANA binding to histone H2A/H2B | Q9QR71 | 320,000 tested, 0.6% active | inhibition, % (concentration not given with the values) | cell-free LANA-H2A/H2B peptide, fluorescence polarization; in the data active = inhibition mostly above about 10%, no sharp cut-off; inactive = mostly below about 6.7%;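 also: stock transfer was 7.5 nL into about 10 µL; 0% = median of vehicle wells and 100% = median of positive control wells; one replicate is shown; the record names a cut of 25% in any replicate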
# HNF4A DNA FP – change in binding of human HNF4 alpha to DNA. P41235. HNF4a-FITC DNA binding, fluorescence polarization, 1 h. activity change, % at 10 µM. 360,000 tested, 0.3% active; in the data active = activity change above about 30%, passing the limit was not always enough;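 also: controls were the assay level and a saturating level of protein; the project sought stronger binding though the title names inhibitors; some compounds called inactive have numbers as strong as hits; positive values seem to mean higher polarization but the record does not say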
# Target sequence (P41235 whole entry, looked up): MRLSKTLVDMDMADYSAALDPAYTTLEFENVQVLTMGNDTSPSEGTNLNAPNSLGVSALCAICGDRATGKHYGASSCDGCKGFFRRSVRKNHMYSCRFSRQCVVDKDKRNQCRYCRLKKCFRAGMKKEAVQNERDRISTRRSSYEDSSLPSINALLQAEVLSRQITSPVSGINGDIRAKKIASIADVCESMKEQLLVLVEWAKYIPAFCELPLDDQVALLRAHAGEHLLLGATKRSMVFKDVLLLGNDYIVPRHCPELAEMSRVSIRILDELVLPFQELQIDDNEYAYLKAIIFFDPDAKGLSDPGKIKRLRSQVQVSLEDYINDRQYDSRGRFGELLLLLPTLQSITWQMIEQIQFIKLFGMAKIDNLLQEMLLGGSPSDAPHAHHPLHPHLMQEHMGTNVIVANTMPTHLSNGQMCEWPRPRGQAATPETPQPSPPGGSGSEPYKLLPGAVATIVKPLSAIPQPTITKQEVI
# UCH37 DUB inh – human UCH37 deubiquitinating enzyme inhibition | purified proteasome/UCH37, Ub-AMC cleavage fluorescence | inhibition, % (concentration not given with the values) | 330,000 tested, 0.33% active;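 active = mean of two replicates above 20%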;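 also: 0% = compound-free wells with enzyme and 100% = wells lacking proteasome; stock transfer was 100 nL into about 20 µL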
#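 Material: Human UCH37 enzyme supplied as purified proteasome complex | Schedule: 30 min compound-proteasome preincubation then 25 min substrate reaction, room temperature | Detection: AMC fluorescence from Ub-AMC cleavage, excitation 355 nm, emission 460 nm | Benchmarks: Wells without proteasome as full block, compound-free enzyme plus substrate as uninhibited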
# Ecoli growth – blocks Escherichia coli growth | OD600, 23 h; stronger effect = lower value | OD600 absorbance (test concentration not listed) | 330,000 tested, 0.21% active | AID 1053175;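 active = OD600 absorbance below the run mean of sample wells minus 3.6 SD, in any replicate, cut at about 0.56 in these data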;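 also: stock transfer was 300 nL into about 60 µL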
# B2AR ag – activates human beta-2 adrenergic receptor causing internalization. P07550. Am2.2-beta2AR cells, FAP receptor internalization, flow cytometry; reference of the scale not given here. response, % (test concentration not listed). 340,000 tested, 0.43% active. AID 504454;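 active = response above a set limit, near 3 SD of response in nonfluorescent compounds, cut at about 42% in these data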;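 also: stock transfer was 100 nL into about 11 µL; a reference agonist was the positive control; negative values mostly stem from fluorescent compounds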
# Target sequence (P07550 whole entry, looked up): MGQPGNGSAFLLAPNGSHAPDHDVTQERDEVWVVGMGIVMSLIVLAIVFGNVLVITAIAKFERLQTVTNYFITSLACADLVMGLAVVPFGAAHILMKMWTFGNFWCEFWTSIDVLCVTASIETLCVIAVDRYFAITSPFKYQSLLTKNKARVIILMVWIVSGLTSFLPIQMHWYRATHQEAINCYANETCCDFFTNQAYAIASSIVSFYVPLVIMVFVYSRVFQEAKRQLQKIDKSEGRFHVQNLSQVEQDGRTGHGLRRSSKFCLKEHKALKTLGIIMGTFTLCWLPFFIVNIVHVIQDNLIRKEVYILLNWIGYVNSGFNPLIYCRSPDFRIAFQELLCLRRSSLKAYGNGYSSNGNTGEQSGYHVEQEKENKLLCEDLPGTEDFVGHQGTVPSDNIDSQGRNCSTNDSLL
# A1 inh – inhibitors of the anti-apoptotic protein A1, read as caspase activation | MEF A1-2A-BIM cells, Caspase-Glo 3/7 luminescence, 3 h; percent of clofoctol response, vehicle zero | caspase activation, % (no concentration beside the values) | 330,000 tested, 0.066% active;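 active = over half of replicate activation scores above 10%, or exactly half above 10 with the replicate mean above 10; inconclusive = replicate mean below 10 yet half the replicates above 10; inactive = over half of replicates below 10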;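 also: wells of about 30 µL received 50 nL stock; many hits fall short of the cut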
# Vif TR-FRET – HIV-1 Vif–A3G interaction blockers – biochemical, TR-FRET, GST-Vif 1-94, biotin-A3G peptide, dose response retest, primary screen (AID 1117319) | TR-FRET GST-Vif / biotin-A3G peptide binding; higher % means a stronger effect; test concentration not given here; strong numbers were not always called active | inhibition, %; hits with a dose series show IC50 in µM | 260,000 tested, 0.57% active;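 active = above the screen mean plus three standard deviations and confirmed in dose response; inconclusive = results disagree or hit not tested in dose response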;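 also: Vif residues 1-94 fused to GST binding biotinylated APOBEC3G peptide 110-148; 0% = full assay without inhibitor and 100% = GST in place of GST-Vif; retest series ran down from 100 µM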
# * = called active by the depositor; i = inactive; u = inconclusive; x = not tested or not shown.
SMILES,LANA-H2B inh,HNF4A DNA FP,UCH37 DUB inh,Ecoli growth,B2AR ag,A1 inh,Vif TR-FRET
CC(C)C(=O)NC(c1cccs1)c1cc([N+](=O)[O-])c2cccnc2c1O (stereo not drawn),-0.1,-3.7,12.8,0.672,1.9,-0.5,x
CCC(CCC(=O)Nc1ccc(S(N)(=O)=O)cc1)C(=O)O (stereo not drawn),1.2,-0.1,2.0,0.699,4.6,0.4,-14.3%
Cc1ccccc1NC(=O)N(CCc1nc2ccccc2[nH]1)Cc1ccccc1,2.0,-0.9,3.5,0.718,0.4,1.5,-11.8%
CCN1CCN(C(=O)CCc2nnc(CCCCc3ccccc3)o2)[C@@H](C)C1=O,6.6,3.8,4.9,0.631,5.0,1.3,8.6%
CCN(CC)CCN(Cc1cc2cc3c(cc2[nH]c1=O)OCCO3)C(=S)NCCCOC,0.1,4.5,-122.1,0.666,0.7,-0.4,x
O=C(O)CCCNS(=O)(=O)c1ccc2ccccc2c1,0.7,2.4,5.1,0.704,5.2,0.2,-1.9%
CC(=O)N(CN1C(=O)c2ccccc2C1=O)c1ccccc1,6.1,-4.3,0.9,0.711,-6.4,-0.7,-0.3%
COc1ccc(CNC(=O)c2cc(=O)c3cc(C)c(C)cc3o2)cc1,4.6,-2.5,0.3,0.698,4.5,-0.8,-9.9%
O=C(NC1CCCCCC1)c1cc2c(=O)n3ccccc3nc2s1,1.1,3.8,i,0.712,-9.2,-1.0,x
O=C(/C=C/c1ccc(Br)o1)NC(c1ccccc1)c1ccccc1,-4.4,-0.1,0.9,0.682,4.2,-0.5,x
O=C(Nc1ccc(F)cc1)N1CCCCCC1,0.0,4.0,1.0,0.662,-4.3,0.8,0.5%
CCC(=O)Nc1cc(=O)[nH]c2nc(-c3ccc(Cl)cc3)nn12,-6.6,0.1,5.1,0.676,-2.8,0.1,6.6%
CC1CN(C(=S)SCC(=O)c2ccc(Cl)cc2)CC(C)O1 (stereo not drawn),-5.1,0.5,2.5,0.689,2.2,0.6,x
CCc1nc2ccccc2c(C(=O)Oc2cccc3cccnc23)c1C,2.7,-1.4,0.2,0.733,22.2,0.2,-9.6%
COc1ccc(CNC(=O)CCOc2ccc(C(C)(C)C)cc2)cc1,-0.9,-2.3,1.0,0.786,-12.4,0.3,2.5%
Cc1ccc(N(CC(=O)N2CCOCC2)S(C)(=O)=O)cc1,2.4,-2.9,0.1,0.689,-0.3,-0.5,x
O=C(CN1C(=O)CNC1=O)Nc1ccc(Cl)cc1,0.4,-1.3,4.8,0.709,-4.2,0.5,23.1%
CC1CCN(S(=O)(=O)c2cccc(C(N)=O)c2)CC1,2.4,1.1,3.8,0.697,1.1,0.3,x
O=C(CCC(=O)N1CCOc2ccccc21)NCCCN1CCOCC1,2.5,2.1,-0.9,0.701,-21.1,-0.1,x
Fc1ccc(C2=NOC(c3nnc(-c4ccccc4)o3)C2)cc1 (stereo not drawn),1.3,-2.2,1.8,0.649,-4.5,0.6,-0.8%
O=C(CSc1nnc(NC(=O)c2ccccc2F)s1)NC1CC1,0.9,-2.2,6.5,0.646,-4.2,-1.2,x
O=C(O)c1ccccc1Nc1ccc([N+](=O)[O-])cc1C(=O)O,2.4,1.9,x,x,-4.6,1.4,7.4%
CCCCOC(=O)Nc1ccc(S(=O)(=O)Nc2ncccn2)cc1,-5.5,1.1,-0.3,0.729,-2.2,0.3,-6.3%
O=C(Nc1cccc(Cl)c1)Nc1ccccc1C(=O)NCc1ccco1,1.4,-0.5,-10.5,0.782,-11.2,-4.4,u
Cc1ccc(S(=O)(=O)CCC(=O)OCc2nnc(-c3ccccc3Br)o2)cc1,-2.5,3.5,-0.3,0.672,-0.6,1.3,1.1%
COCCN1Cc2cccc(C(=O)NCc3ccccc3OC)c2C1=O,-0.7,0.4,3.1,0.729,-16.6,0.0,0.0%
CCOc1ccc(NC(=O)CCN2CCN(c3ccccc3F)CC2)cc1,10.1,0.4,0.1,0.633,0.0,-0.5,-1.1%
CCNC(=O)Nn1c(C)nnc1C,-3.8,3.8,-0.7,0.757,-0.2,-1.0,0.6%
CC(=O)Oc1ccc(C(=O)Nc2cccc(C(=O)c3ccc(C)c(C)c3)c2)cc1,5.4,-2.2,-0.4,0.659,16.8,0.1,x
COc1ccc(/C=N/NC(=O)c2cccnc2)cc1CSc1nc2ccccc2s1,2.9,3.0,x,x,6.3,-0.2,16.0%
CC(=O)Nc1c(C)cc(OCC(=O)O)cc1C,-1.6,4.3,2.7,0.687,-1.8,0.7,-9.0%
CN(Cc1ccccc1)C(=O)CSc1nc2ccccc2c(=O)n1Cc1ccco1,-0.6,2.6,4.7,0.731,-4.8,-0.1,15.3%
COc1cc(C)c(Cl)cc1S(=O)(=O)n1ccnc1,-3.8,1.2,-0.2,0.688,2.8,0.3,11.8%
CCC(C)c1ccccc1N1CC(C(=O)Nc2ccc(N3CCOCC3)cc2)CC1=O (stereo not drawn),x,0.9,-2.0,0.626,-5.3,0.4,9.7%
O=C(COC(=O)c1ccc(F)cc1Cl)Nc1cccc(S(=O)(=O)N2CCOCC2)c1,x,5.7,0.6,0.686,-4.1,x,x
Cc1ccc2occ(/C=N/NC(=O)c3ccncc3)c(=O)c2c1,4.1,-1.7,x,x,5.5,1.1,x
COc1ccc(C)cc1-n1nnnc1SCC(=O)NNC(=O)c1ccc([N+](=O)[O-])cc1,4.6,4.6,6.7,0.672,-1.0,-0.2,x
Cc1ccccc1C(=O)N1CCC(C(=O)Nc2ccc3c(c2)OCCO3)CC1,-7.7,1.6,1.5,0.713,2.7,-0.3,-1.8%
COc1ccc2ccccc2c1CNC(C)CCc1ccccc1 (stereo not drawn),1.3,-3.8,4.6,0.633,23.9,0.7,x
CCOC(=O)c1c(C)c(C(=O)NCC2CCCO2)c(C)n1C (stereo not drawn),0.1,0.3,2.2,0.683,1.1,0.4,-2.3%

# Only UCH37 DUB inh (2 entries from above):
Structure | UCH37 DUB inh
COc1cc(C)c(Cl)cc1S(=O)(=O)n1ccnc1 | -0.2
O=C(CN1C(=O)CNC1=O)Nc1ccc(Cl)cc1 | 4.8

# The results go on:
SMILES,LANA-H2B inh,HNF4A DNA FP,UCH37 DUB inh,Ecoli growth,B2AR ag,A1 inh,Vif TR-FRET
NS(=O)(=O)c1ccc(CCNC(=O)CN2C(=O)NC(c3ccccc3)(c3ccccc3)C2=O)cc1,5.9,7.2,4.9,0.725,-2.8,-0.9,-1.4%
CCOC(=O)C1CCCN(C(=O)C2CCN(S(=O)(=O)CC)CC2)C1 (stereo not drawn),-1.3,-0.1,1.8,0.722,-2.8,0.7,5.4%
Cc1ccc(/C=N\NC(=O)C2CC(=O)N(c3ccccc3)C2)o1 (stereo not drawn),5.5,1.0,x,x,-7.1,-0.3,x
CC(C)c1nnc(SCC(=O)NCc2ccco2)n1C,0.9,-2.7,2.2,0.697,6.8,1.3,8.7%
COC(=O)C1=C(N)Oc2cc(C)n(C)c(=O)c2C1c1ccc(Cl)c(Cl)c1 (stereo not drawn),-5.3,-3.6,1.3,0.695,-19.6,0.2,16.2%
CC1(c2cccc(Br)c2)NC(=O)N(CC(=O)N2CCN(C(=O)c3ccco3)CC2)C1=O (stereo not drawn),-1.4,0.5,0.3,0.679,-4.2,-0.2,-7.4%
O=c1[nH]c(CSc2nnc(Cc3ccccc3)o2)nc2ccccc12,2.1,-4.1,3.2,0.718,-2.2,0.8,-5.7%
COc1cccc(/C=C2\SC(=S)N(CCCC(=O)N3CCCCC3CCO)C2=O)c1 (stereo not drawn),-1.3,4.5,4.6,0.716,-0.2,-0.4,x
CC(=O)c1ccc(-c2cccs2)s1,-1.1,2.0,i,0.706,-4.8,-0.6,2.2%
CC1CCN(c2ccc3nnc(CCC(=O)Nc4cccc(F)c4)n3n2)CC1,2.3,4.7,2.5,0.677,-9.7,-2.4,-11.2%
COc1cc2c(cc1OC)C(c1cc3cccc(C)c3[nH]c1=O)N(C(=O)c1ccco1)CC2 (stereo not drawn),0.8,-1.0,x,x,-5.0,0.5,x
Cc1ccc(-n2ncc3c(=O)n(CC(=O)Nc4cccc(Cl)c4)cnc32)cc1C,5.2,11.4,-2.2,0.713,5.8,0.1,-0.5%
CN(C)S(=O)(=O)Oc1cccc(C(=O)Nc2ccccc2Cl)c1,-1.5,1.0,1.1,0.693,-4.0,-2.6,-2.5%
Cc1ccc(NC(=O)CSc2ccccn2)cc1S(=O)(=O)N1CCOCC1,0.0,-1.6,2.1,0.718,0.6,1.0,20.5%
COc1ccc(CNC(=O)CCSCc2ccc(C)cc2)cc1,-5.3,-9.6,0.6,0.668,-1.0,-1.1,x
C=CCN1N=C(/C=C/c2ccc(C)cc2)CCC1=O,0.9,0.8,8.2,0.619,0.7,3.0,-5.1%
CCc1ccc2nc(NC(=O)CN3C(=O)NC4(CCCC4)C3=O)sc2c1,-0.5,3.1,1.7,0.672,20.8,-1.9,3.6%
CC1Cc2ccccc2N1C(=O)CSc1nnc(NC(=O)Cc2cccs2)s1 (stereo not drawn),1.4,x,0.3,0.7,x,1.1,3.2%
CCCn1c(SCC(=O)c2ccc3c(c2)NC(=O)CO3)nc2ccccc21,-0.7,2.2,4.8,0.646,10.7,0.4,x
O=C(CSc1nc(=O)n(CCCN2CCOCC2)c2c1CCCC2)Nc1ccc(F)cc1F,-1.0,-3.3,5.2,0.733,-4.5,0.7,-5.0%
COc1cc(/C=C2/C(=O)NN(c3ccc(Cl)cc3)C2=O)cc(Br)c1O,-5.4,-9.7,11.5,0.679,9.3,-0.4,30.7%
O=C(N/N=C/c1cccnc1)c1cccs1,9.2,2.5,x,x,-1.0,-0.5,3.7%
CN(C(=O)Cn1cc(C#N)c2ccccc21)c1ccccc1,7.9,0.2,-1.6,0.716,-5.4,0.7,4.3%
COc1ccc(C(=O)/C=C/C(=O)N(CC(=O)NC2CCCCC2)Cc2ccc(F)cc2)c(O)c1,x,3.5,-2.2,0.659,123.3*,x,14.9%
Cc1ccc(O)c(NC(=O)c2noc3c2CCCCC3)c1,-3.5,-12.8,4.1,0.684,4.7,0.8,-0.2%
CNS(=O)(=O)c1cccc(C(=O)NCC2(N3CCCCC3)CCCCC2)c1,-0.7,-3.2,x,x,-2.8,1.1,x
O=C1Cc2ccccc2C(c2ccccc2)N1 (stereo not drawn),-7.9,1.5,7.2,0.67,-0.7,0.3,3.3%
CCOc1ccc(NC(=O)Cn2c(=O)n(CC3CCCO3)c(=O)c3ccccc32)cc1 (stereo not drawn),-1.3,3.9,0.3,0.648,-4.5,0.2,-8.6%
COc1ccccc1CN1CC(C(=O)NCC2CCCO2)CC1=O (stereo not drawn),-5.4,-1.1,2.8,0.696,4.0,1.5,-3.5%
O=C(c1ccc2nccnc2c1)N1CCCC(Nc2ccc(F)c(F)c2)C1 (stereo not drawn),2.4,1.4,1.8,0.7,-8.3,1.2,-10.4%
COc1ccc(-n2cnc3cc(NC(=O)c4ccco4)ccc32)cc1,5.3,-0.6,4.9,0.625,-22.1,0.6,8.0%
CCOC(=O)c1oc2ccccc2c1NC(=O)c1cccs1,1.6,1.7,-11.6,0.694,1.0,-0.2,20.2%
CC(C)(c1ccccc1)c1ccc(OCCCN2CCNCC2)cc1,-0.8,2.5,5.6,0.606,41.4,2.0,17.3%
Cc1nnc(SCC(=O)Nc2ccc(N3CCOCC3)cc2)o1,1.0,1.9,-0.7,0.708,2.0,-0.6,2.2%
CCc1ccc(S(=O)(=O)NCCc2cn3ccsc3n2)s1,-0.7,0.2,2.7,0.732,-2.0,-0.2,1.9%
Cc1cc(C)c2sc(N(CCCN(C)C)C(=O)COc3ccc(Cl)cc3)nc2c1,-1.4,6.0,3.2,0.616,23.4,-0.2,0.7%

# From PubChem
